D2 potentiator: Beta-Arrestin HTS for Positive Allosteric Modulators of the Human D2 Dopamine Receptor: Potentiators; AID 624464, 2012; DiscoveRx D2 beta-arrestin cells, luminescence, 90 min; 100% = 57 uM dopamine signal; potentiation, % (concentration not given with the values); hit rate 0.23% among 360,000; active = potentiation of 50% or more; inconclusive = 30% to 50%; inactive = 30% or less;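 also: compound concentration not given in the record; tested on top of an EC20 dose of dopamine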
Target sequence (P14416 whole entry, looked up): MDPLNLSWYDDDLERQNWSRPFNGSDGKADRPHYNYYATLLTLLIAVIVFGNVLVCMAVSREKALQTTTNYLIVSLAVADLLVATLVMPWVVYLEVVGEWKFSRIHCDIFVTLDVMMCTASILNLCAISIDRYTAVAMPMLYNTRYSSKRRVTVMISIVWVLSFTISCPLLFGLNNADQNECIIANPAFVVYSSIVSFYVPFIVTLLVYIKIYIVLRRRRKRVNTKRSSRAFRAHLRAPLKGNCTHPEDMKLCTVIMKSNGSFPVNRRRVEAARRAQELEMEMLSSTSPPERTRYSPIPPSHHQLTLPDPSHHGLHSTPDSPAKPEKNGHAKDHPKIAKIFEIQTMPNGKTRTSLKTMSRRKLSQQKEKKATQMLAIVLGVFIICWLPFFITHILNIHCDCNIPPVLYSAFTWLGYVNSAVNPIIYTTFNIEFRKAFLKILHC
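PathHunter beta-arrestin assay in DiscoveRx D2 cells. Compounds were added with an EC20 of dopamine (50 nM final) for 90 min at 37 deg C. Luminescence was read 1 h after detection reagent, with 57 uM dopamine as the EC100 control.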
gsp antagonist: qHTS for Antagonists of gsp, the Etiologic Mutation Responsible for Fibrous Dysplasia/McCune-Albright Syndrome: qHTS | AID 624288, 2012 | gsp-mutant cells, cAMP HTRF, 30 min; control for the full effect not named in the record | Potency, µM (doses to about 76.9 µM), for the others: top-dose activity change, negative = inhibition, most hits filed as inhibitors | hit rate 0.4% among 340,000; active = falling curve of any shape with a large fitted effect; inconclusive = falling curve, mostly with a smaller effect; inactive = flat or rising curve; cell line not stated here;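 also: intracellular cAMP measured with PDE inhibitor Ro 20-1724 present during compound exposure; potency is read from the fitted curve at half-maximal effect; % is scaled to controls: 0 for no effect and ±100 for the full control effect; nearly all actives have a fitted effect of over 65% in size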
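Cells in G418 medium, seeded 16-24 h, 37C; buffer exchange to DPBS + 1 mM CaCl2, 0.5 mM MgCl2, 0.05% BSA; cpds in DMSO + […] (300 uM stock), 30 min 37C; HTRF cAMP detection.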
CtBP-E1A blk: qHTS Assay for Inhibitors of the CtBP/E1A Interaction. CtBP / adenovirus E1A interaction (AlphaScreen). AlphaScreen GST-E1A/His-CtBP binding, 1536-well; active compounds read low; control for the full effect not named in the record. activity change, % (no concentration beside the values). hit rate 0.49% among 340,000. AID 651724, 2012; in the data active means activity change below about -65%; inconclusive means about -30% to -65%; inactive means above about -30%; also: % is scaled to controls: 0 for no effect and ±100 for the full control effect
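Homogeneous bead-based format: GST-tagged E1A captured on glutathione donor beads, His-tagged CtBP on nickel acceptor beads; compounds precede bead addition by 2 h at 37 °C.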
D2 agonist: Beta-Arrestin HTS for Positive Allosteric Modulators of the Human D2 Dopamine Receptor: Agonists. DiscoveRx PathHunter D2 beta-arrestin, luminescence, 90 min; 100% = 57 uM dopamine signal. activation, % (no concentration beside the values). hit rate 0.084% among 360,000; in the data active = activation above about 40%; inconclusive = about 15% to 40%; inactive = below about 15%; also: compound concentration not given in the record; the text of the record calls up to 30% inactive
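Agonist mode: compounds alone added to overnight-plated D2 PathHunter cells for 90 min at 37 C, with 57 uM final dopamine (EC100) defining full response. Beta-arrestin recruitment detected by chemiluminescent reagent, read after 1 h at ambient temperature.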
Six1-Eya2 blk: qHTS Assay for Inhibitors of the Six1/Eya2 Interaction. activity change, % (concentration not given with the values). AlphaScreen GST-Six1/His-Eya2 binding, biochemical; active compounds read low; control for the full effect not named in the record. hit rate 0.56% among 360,000. Homeobox protein SIX1 (Homo sapiens) + Protein phosphatase EYA2 (Homo sapiens), …; in the data active = activity change below about -65%; inconclusive = about -30% to -65%; inactive = above about -30%; also: % is scaled to controls: 0 for no effect and ±100 for the full control effect
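GST-Six1 + His-Eya2 (5X stock: 250/500 nM); Tris pH 8.0, 300 mM NaCl, 0.05% BSA, 0.02% Tween 20; GSH donor/Ni acceptor beads; 1 h 37 °C dark; AlphaScreen readout.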
gsp ag: qHTS for Agonist of gsp, the Etiologic Mutation Responsible for Fibrous Dysplasia/McCune-Albright Syndrome: qHTS; Potency, µM (doses to about 76.9 µM), for inactives: at the top dose activation (cAMP increase), actives largely listed as activators; AID 624287, 2012; hit rate 0.13% among 340,000; gsp mutant cells, cAMP HTRF, 30 min; control for the full effect not named in the record; active = well fitted activation curve with a large enough effect; inconclusive = small, poorly fitted or top-dose-only effect, or another doubt; inactive = no such curve, though single readings can be large or run the other way; cell line not stated here;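 also: phosphodiesterase inhibitor Ro 20-1724 added with compounds to block cAMP breakdown; potency is read from the fitted curve at half-maximal effect; nearly all actives have a fitted effect of over 60% in size; about a fifth of the inactives were tested at one dose only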
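Cells in DMEM/10% FBS with G418 were pretreated with compounds in DMSO plus […] (300 uM stock) for 30 min at 37C. cAMP was measured by HTRF (cAMP-d2 plus anti-cAMP antibody-K) after 30 min at room temperature.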
Numbers without * were called inactive; u = inconclusive; x = no result given; [ ] = dose if it differs, or a comment.

SMILES	D2 potentiator	gsp antagonist	CtBP-E1A blk	D2 agonist	Six1-Eya2 blk	gsp ag
COC(=O)c1ccc(OCC2c3cc(OC)c(OC)cc3CCN2C(C)=O)cc1 (stereo not drawn)	-16	12%	0	0.3	-7	0%[15.4 µM]
O=C(C[n+]1ccccc1)Nc1c(Cl)cc(Cl)cc1Cl	4	4%	0	2.5	1	-8%
O=C(OCc1ccc(Cl)cc1Cl)c1cccnc1Cl	8	-13%	35	-3.8	31	-17%
Cc1ccc(O)c(NC(=O)c2cc(-c3ccc(F)cc3)on2)c1	-7	15%	-17	4.8	-1	0%
O=C(O)CN1C(=O)/C(=C\c2cccc(OCc3ccccc3)c2)SC1=S	0	-22%	x	8.5	-2	-28%
CC1Cc2cc(S(=O)(=O)N3CCC(C(=O)Nc4ccccn4)CC3)ccc2N1C(=O)C1CCC1 (stereo not drawn)	-5	-17%	-2	3.6	-5	3%
O=C(N/C(=C/c1ccc(Br)cc1)C(=O)N1CCCC1=O)c1ccco1	-1	-3%	-93*	-3.4	-10	12%
O=c1cc(CSc2ccccn2)nc(N2CCN(c3ccccc3)CC2)[nH]1	-9	1%	-9	-2.3	5	-30%
CSCCC(NC(=O)COc1ccccc1)C(=O)N1CC(C)CC(C)C1 (stereo not drawn)	-2	-10%	-2	3.4	-2	-44%[inhibitor]
Cc1ccc(CN(C)C(=O)CCNS(=O)(=O)c2ccccc2)o1	-2	11%	7	8.6	-1	0%
COc1ccc2c(c1)CC[C@@H]1[C@@H]2CC[C@]2(C)[C@@H](C(C)=O)C[C@@H]12	-4	10%	x	0.6	3	-19%
CC(Oc1ccc(F)cc1)C(=O)N1CCN(c2ncccn2)CC1 (stereo not drawn)	-42	4%	-2	0.6	-13	3%
CCn1cnc2sc(C(=O)N(Cc3ccc(N(C)C)cc3)Cc3ccco3)c(C)c2c1=O	5	7%	u	0.6	u	15%
CC1CC(C)CN(C(=O)C2CC(=O)N(c3ccc4c(c3)OCCO4)C2)C1 (stereo not drawn)	0	4%	4	3.8	2	3%
Cc1nn(C)cc1/C=C(/C#N)C(N)=O	2	-2%	-4	-3.1	3	11%
O=C(NCCCCCNC(=O)c1ccccn1)c1ccccn1	-3	1%	x	-2.7	8	-36%[inhibitor]
Cc1ccc(CNC(=O)c2ccc(C)s2)cc1	-4	2%	3	0.7	-4	1%[15.4 µM]
CC12CCC(C(=O)Nc3ccccc3Br)(C/C1=N\O)C2(C)C (stereo not drawn)	9	4%	3	-2.9	0	-38%[inhibitor]
COCCCN(C(=S)Nc1ccc(C)cc1Cl)C(C)c1ccncc1 (stereo not drawn)	-28	-16%	25	-5.4	6	5%
COC(=O)[C@H]1C[C@H](OC(=O)NCc2ccccc2)[C@@]2(O)CN(S(=O)(=O)c3ccc(C)cc3)CC2[C@H]1C(=O)OC (stereo partly drawn)	0	x	-9	-6.7	3	-29%
Nc1cc(=O)nc(SCC(=O)NC2CCCCC2)n1-c1ccccc1	9	9%	3	-2.2	-3	u
NSc1nc(N)c2nc(-c3ccccc3)c(-c3ccccc3)nc2n1	-25	x	-13	-0.9	u	-22%[15.4 µM]
CN(c1ccc(OCC(=O)Nc2nc3ccccc3s2)cc1)S(=O)(=O)c1ccccc1	-7	-8%	-20	0.2	2	-6%
O=C(CSc1ccc(-c2cccnc2)nn1)N1CCCCCC1	-1	-6%	-5	2.3	1	1%
COc1ccc(C(=O)NC2CCN(CC(=O)NCc3ccccc3F)CC2)cc1	-4	1%	4	0.0	8	-18%
CCOC(=O)CSc1nc2cc3c(cc2cc1CC)OCCO3	-23	u	12	-5.3	28	13%
CC(=O)Nc1ccc(NC(=O)CSc2nc3ccccc3nc2N2CCCCC2)cc1	-6	-26%	-1	-2.6	9	11%[15.4 µM]
CCOC(=O)CNc1c(N2CCN(c3ccccn3)CC2)c(=O)c1=O	-2	-12%	0	-7.5	-10	-15%
COc1cccc(NC(=O)CSc2nnc(-c3ccoc3C)n2-c2ccccc2)c1	-5	-8%	-8	-1.0	-17	-3%
CCOC(=O)COc1ccc(C(=O)Nc2cccc(Cl)c2C)cc1	-17	x	-12	-3.1	9	-5%[15.4 µM]
CCc1cc(C(=O)c2ccc(OC)cc2)c(NC(=O)CN2CCCCC2)s1	-15	-5%	x	-4.0	0	-36%[inhibitor]
CN(C(=O)c1cccc(S(=O)(=O)N2CCOCC2)c1)c1c(N)n(Cc2ccccc2)c(=O)[nH]c1=O	-2	8%	-4	-0.8	0	-23%
COc1cc(/C=N\Nc2cc(=O)n(C)c(=O)n2C)ccc1O	-25	-15%	u	-0.2	u	13%
Cc1cc(C(=O)OCC(=O)NC2CCS(=O)(=O)C2)c2ccccc2n1 (stereo not drawn)	-3	10%	3	0.2	-16	2%[15.4 µM]
CCCCNC(=O)CSc1nc2cc3c(cc2c(=O)n1CCC(=O)NCCc1ccc(OC)c(OC)c1)OCO3	-4	-4%	10	-5.6	16	-26%[15.4 µM]
CC(C)NC(=O)Nc1ccc2c(c1)CC(=O)N([C@@H](C)CO)C[C@H](C)[C@@H](CN(C)C(=O)NC1CCCCC1)O2	x	8%	8	-0.3	2	x
COc1ccc(N(CC(=O)NC2CCCCC2)C(=O)c2ccc(C)s2)cc1OC	-2	9%	-22	-0.8	0	2%[15.4 µM]
CC(C)(Oc1ccc(Cl)cc1)C(=O)NCc1ccncc1	3	-2%	4	-1.7	-1	-41%
O=C(CCN1C(=O)c2ccccc2C1=O)C1=NN[C@@H]2C(=O)N(c3ccc4c(c3)OCCO4)C(=O)[C@H]12	3	6%	4	-6.9	8	-8%[15.4 µM]
Cc1ccc(N2C(=O)C3C=NNC3C2=O)cc1 (stereo not drawn)	-7	-11%	8	-1.5	3	35%[15.4 µM]
O=C(N/N=C/c1cccc([N+](=O)[O-])c1)c1cc2c(ccc3ccccc32)o1	-7	-1%	6	-0.9	6	13%
CCOc1ccc(NC(=O)COc2ccc(N3CC(C(N)=O)CC3=O)cc2)cc1 (stereo not drawn)	-6	-11%	1	-0.4	-5	6%[15.4 µM]
CCOC(=O)c1c(CN(CC)CC)oc2ccc(OC)cc12	5	1%	-2	0.6	0	10%
COCc1c(C(=O)N/N=C/c2ccc(C)o2)nnn1-c1nonc1N	3	-2%	2	1.8	0	u
COc1ccccc1CCC(=O)Nc1cccc(S(=O)(=O)N2CCCCCC2)c1	-6	-10%	-2	-1.0	-2	9%
CCC(=O)Nc1cc(-c2nc3ncccc3o2)ccc1Cl	6	-3%	4	5.4	5	u
O=C(OC1CCOC1=O)C1CCN(S(=O)(=O)c2c(Cl)cccc2Cl)CC1 (stereo not drawn)	-11	6%	2	-0.7	9	u
Cc1ccc(/C=C/C(=O)Nc2nccs2)o1	53*	-2%	28	8.2	-8	6%
O=C1C(Cl)=C(Nc2ccccc2O)C(=O)N1CCc1ccccc1	u	-4%	-16	-1.1	-10	18%
O=C(CCc1nnc(CCCCc2ccccc2)o1)N1CCCCC1CCO (stereo not drawn)	-10	0%	1	-0.3	-2	-38%[inhibitor]

Results in Six1-Eya2 blk, D2 potentiator and gsp antagonist (two entries from above):
molecule	Six1-Eya2 blk	D2 potentiator	gsp antagonist
O=C(CCc1nnc(CCCCc2ccccc2)o1)N1CCCCC1CCO (stereo not drawn)	-2	-10	0%
CCOC(=O)COc1ccc(C(=O)Nc2cccc(Cl)c2C)cc1	9	-17	x

Carrying on:
SMILES	D2 potentiator	gsp antagonist	CtBP-E1A blk	D2 agonist	Six1-Eya2 blk	gsp ag
O=C(NCc1ccco1)c1ccc(Br)s1	-18	11%	0	-1.3	-3	-70%[inhibitor]
Cc1ccc(C2CC(c3ccccc3)=NN2C(=S)Nc2ccccc2)o1 (stereo not drawn)	-12	4%	-18	-6.2	-18	2%
CCOC(=O)[C@@H]1[C@H]2COc3ccccc3[C@H]2N2C(=O)N(c3ccc(C)cc3)C(=O)[C@]12C	-9	-5%	-7	-1.8	9	35%
O=C(Nc1ccccc1)c1cc(C2CCCN(C(=O)c3ccc4c(c3)CCO4)C2)on1 (stereo not drawn)	-7	x	-5	2.0	1	x
Fc1cccc(CN2CCN(Cc3nc(-c4cnccn4)no3)CC2)c1	-4	4%	8	1.5	7	0%[15.4 µM]
O=C(COC(=O)Cn1cnc2ccccc2c1=O)Nc1ccc(Cl)cc1	-1	-2%	6	-0.3	-8	24%
CC1CCN(C(=O)COC(=O)c2cccc(S(=O)(=O)N3CCOCC3)c2)CC1	-6	x	2	-0.8	3	13%
CCSCCNC(=O)c1cncc(Br)c1	-14	-4%	-2	-2.3	1	-18%
COc1ccc(-n2nc3c(c2NC(=O)c2ccc(Br)cc2)CS(=O)C3)cc1 (stereo not drawn)	-3	4%	0	-1.1	0	-43%[inhibitor]
N#Cc1ccc(CSc2nnc(NC(=O)CCc3nc4ccccc4c(=O)[nH]3)s2)cc1	-16	4%	-4	-2.7	4	-27%
CCN(CC)CCCNC(=O)c1cc(-c2cccc(Cl)c2)on1	-11	16%	5	-3.2	1	-58%[inhibitor]
CC(=O)Nc1ccc(NC(=O)CN(c2ccc(C(C)C)cc2)S(=O)(=O)c2ccccc2)cc1	1	-16%	x	-4.3	8	-48%[inhibitor]
CCCCOc1ccc(-c2cn3ccccc3n2)cc1[N+](=O)[O-]	4	-22%	x	5.1	-13	-13%
Cc1ccc(CNC(=O)c2c(-c3ccccc3)noc2C)cc1	-2	7%	9	-4.9	5	2%
C=CCN1C(=O)C2(OCCCO2)c2ccccc21	-8	6%	5	-1.9	10	-11%[15.4 µM]
OCc1nn2c(c1Br)NC(c1ccccc1)CC2C(F)(F)F (stereo not drawn)	-7	0%	3	-0.7	0	u
O=C(C[C@H]1C[C@H](C(=O)N2CCCCC2)[C@@]2(CCc3ccccc3)c3[nH]c4ccc(Cl)cc4c3CCN2C1=O)NCCCn1ccnc1	x	-13%	-22	1.8	-28	x
COc1ccc(NC(=O)c2cc3ccccn3n2)cc1	-6	-6%	-11	-3.2	2	-25%

Screening results deposited in PubChem by National Center for Advancing Translational Sciences (NCATS).

An unsorted share of the library; about 1.4% have a hit in one of these screens.
